# Screening results (PubChem)
# NPYLR7 ag – mosquito NPYLR7 agonism | HEK293T NPYLR7/Galpha15, GCaMP6s calcium fluorescence | activation, % at 10 µM | actives 0.15% (n = 270,000) | AID 1259423; in the data active = activation above about 40%;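 note: 0% = vehicle and 100% = reference agonist at the receptor; some compounds past the cut are filed as inactive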
# NPYLR7 ag max-min – second read-out of NPYLR7 ag, no call of its own (marks repeat the call); activation, %; measured here: Max-Min RFU normalised activation; some inactives read as strong as hits;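 span of the calcium signal over five minutes; 0% = vehicle and 100% = native peptide agonist; compound fluorescence can raise it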
# * hit, by the source's call; & = joins results of further samples. These rows are one share of the data. The share of hits here may be higher or lower than overall.
SMILES,NPYLR7 ag,NPYLR7 ag max-min
Cc1csc(N2CCCN(CC(=O)N3CCOC4CCCCC43)CC2)n1 (stereo not drawn),13,11
COc1ccc(CCNC(=O)c2cc(-c3ccccc3)nc3ccccc23)cc1,-4,-7
COc1cc2c(cc1OC)C(CNC(=O)CC(C)C)N(C(=O)Nc1cccc(C)c1)CC2 (stereo not drawn),6,14
COc1cc(OC)c(-n2nnc(-c3nc(-c4ccccc4F)no3)c2C)cc1Cl,6,-3
COc1ccccc1OCC1CN(C(=O)C2C=CCC=C2C)CCO1 (stereo not drawn),21,17
Cc1cc(NC(=O)Cn2ccc(-c3ccncc3)n2)n(-c2ccccn2)n1,13,6
Cc1ccc(C)c(Cc2c(C)nc(C)nc2N2CCN(C(=O)COCc3ccccc3)CC2)c1,-2,-1
CCCOc1ccccc1N1C(=O)CC(Nc2ccc(C)cc2)C1=O (stereo not drawn),2,-7
O=[N+]([O-])c1cc(S(=O)(=O)C(F)(F)F)ccc1NCCc1nnc2ccccn12,8,9
COC(=O)c1ccc2nc(NC(=O)Cn3ccnc3)sc2c1,-10,-14
Cc1ccc(C(=O)CSc2nnc(C(C)C)n2Cc2ccco2)cc1C,-2,-6
COc1ccc(CCOC(=O)C2CCCCN2C(=O)c2ccccc2-c2ccc(C(F)(F)F)cc2)cc1OC (stereo not drawn),-7,-11
CCN(C(=O)c1ccccc1N1CCC(NC(=O)c2ccc(Cl)cc2)CC1)C1CCCCC1,24,17
COc1ccnc(NCC(=O)Nc2ccc(F)c(F)c2)n1,-1,7
Cc1nccn1-c1ccccc1CNC(=O)c1cnn2ccn(C)c12,12,11
CCn1c(C2CCCN(C(=O)c3cc(C(F)(F)F)[nH]n3)C2)nn(C)c1=O (stereo not drawn),-4,-5
C/C(=C\c1ccccc1)CN(C)C(C)c1cccnc1 (stereo not drawn),-3,-6
FC(F)(F)CCc1ccnc(NCC2OCCc3ccccc32)n1 (stereo not drawn),0,-1
CNC(=O)c1ccc(NC(=O)N(Cc2ccc(C)s2)C(C)C)cc1,16,10
CCOc1ccc(C(=O)NCC(=O)OCC(=O)NC(C)C(C)C)cc1 (stereo not drawn),-6,-10
CCc1c(C)cc(C(=O)NCC2CCN(CC(C)C)C2)c(=O)n1C (stereo not drawn),12,-1
CCCc1c(C(=O)NCc2ccco2)cnn1-c1cccc(Cl)c1,1,2
CN1CCN(Cc2cnc[nH]2)CC12CCN(C(=O)CCc1ccccc1)CC2,4,1
Cc1ccc(NC(=O)NCCNc2cc(N3CCCC3)nc(C)n2)c(Cl)c1,-1,-4
CCc1nn2c(=O)cc(CN(C)Cc3ccc(OC)c(F)c3)nc2s1,12,5
COc1ccc(Cn2cc3cnc(C(=O)NCc4ccc(F)c(F)c4)cc3c2)cc1,1,-5
COc1ccccc1OCCOc1ccc(F)cc1,-7,11
Cc1ccc2nc(N3CCOCC3)c(C=C3SC(=S)N(C4CCCCC4)C3=O)c(=O)n2c1,-1,22
COC(=O)c1c(NC(=O)CC2SC(N3CCOCC3)=NC2=O)sc2c1CCC2 (stereo not drawn),0,17
Cc1cc2ccccc2n1CCNC(=O)Nc1cn(C)c2ccccc12,-2,-5
Cc1ccc(-n2nnnc2C2(NC(=O)C(F)(F)F)CCCC2)cc1,19,11
O=C1c2ccccc2-c2onc3c(Cl)cc(O)c1c23,-3,-7
CC(CNC(=O)c1ncc(C(C)(C)C)o1)CC1(C)OCCO1 (stereo not drawn),-2,-4
OC(COCc1ccco1)CN(Cc1ccco1)Cc1c(-c2ccccc2)noc1N1CCCCC1 (stereo not drawn),11,17
CCCCCCCC(=O)Nc1ccc(N2CCC(C)CC2)c(C(=O)NC(C)c2ccccc2)c1 (stereo not drawn),7,21
Cc1[nH]nc(-n2cnc3ccccc3c2=O)c1-c1ccccc1,-4,-10
COCC(=O)N(CCN(C)C)Cc1csc(COc2cccc(C)c2C)n1,13,25
C=C(C)Cn1c(=O)c2c(nc3oc(-c4ccc(F)cc4)cn32)n(C)c1=O,-4,-4
Cc1ccc(S(=O)(=O)N2C(=O)CCC2C(=O)ON=C(N)c2cccnc2)cc1 (stereo not drawn),0,8
COc1ccc(-c2noc(=O)n2CCCn2cncn2)cc1OC,5,5
Cc1sc2nc(CN3CCCC3)nc(NCC(=O)NC(C)(C)C)c2c1C,1,-1
COc1ccc(CC(=O)NCc2nnc(SCC(=O)N3CCc4ccccc43)n2-c2cccc(C(F)(F)F)c2)cc1,2,3
Fc1ccc(Nc2nccc3[nH]c(-c4ccco4)nc23)cc1Cl,-2,-9
CCN(c1ccc(F)cc1)S(=O)(=O)c1ccc(C(N)=O)cc1,2,0
COc1ccc(C(=O)N2N=C(C3CCCCC3)CC2(O)C(F)(F)F)cc1OC (stereo not drawn),2,1
Cc1ccc(CNCc2cc(Br)c3c(c2)OCO3)cc1,-1,-1
O=C(CN1CCCCc2ccccc21)Nc1cc2c(cc1Cl)OCCO2,11,9
COCCCN=C(NC(=O)c1cccc(C(F)(F)F)c1)OCC(C)C,26,32
C=CCONC(=O)c1cc(Br)cnc1N1CCCCC1,6,5
CCOC(=O)c1ccc2c(c1)nc(SCc1ccc(OC)c(C(F)(F)F)c1)n2Cc1ccccn1,11,12
Cc1ccc(NC(=O)c2cn(C)nc2C(C)C)cc1,7,4
O=C(NC1CC1)C1CNCCN1C(=O)c1cccc(Oc2ccccc2)c1 (stereo not drawn),1,-1
COc1ccc(-c2cc(C(F)(F)F)n3nc(C(=O)Nc4ccc([N+](=O)[O-])cc4Cl)cc3n2)cc1,-22,-26
O=C(CNC(=O)c1ccccn1)N=Nc1c(O)[nH]c2ccccc12,-4,-9
O=C(CN(C(=O)c1ccc(C(F)(F)F)cc1)C1CC1)N1CC(=O)N(c2ccc(Cl)cc2)C1,3,14
CCn1nc(C)c(C(C)NC(=O)c2ccccc2-c2ncc[nH]2)c1C (stereo not drawn),2,2
CCCOc1ccc(C2NC(=O)N(C)C(C)=C2C(=O)OC)cc1OC (stereo not drawn),-7,-13
CCc1nc2ccc(C(=O)NCc3ccc4c(c3)OCO4)cn2c1N(CC)CC(=O)N(C)C,6,23
O=C(O)C1COC2(CCN(C(=O)c3ccc4c(c3)OCO4)CC2)N1C(=O)c1ccccc1 (stereo not drawn),11,6
CC1CN(Cc2nc3ccccc3o2)C(C)CO1 (stereo not drawn),-6,-5
# The list goes on:
SMILES,NPYLR7 ag,NPYLR7 ag max-min
Nc1nonc1-c1nc2ccccc2s1,5,1
O=C(C1CCN(S(=O)(=O)N2CCCCC2)CC1)N1CCCCCC1,4,1
O=C(O)C1CSC(c2cc(Br)ccc2O)N1 (stereo not drawn),-2,-3
O=c1cnc2ccccc2n1Cc1cc(Cl)c2c(c1)OCCO2,-4,-3
O=C(COc1ccccc1)NCCOc1cc(N2CCCC2)ncn1,3,1
CC[C@H]1OC(=O)[C@H](C)[C@@H](O[C@H]2C[C@@](C)(OC)[C@@H](O)[C@H](C)O2)[C@H](C)[C@@H](O[C@@H]2O[C@H](C)C[C@H](N(C)C)[C@H]2O)[C@](C)(OC)C[C@@H](C)C(=O)[C@H](C)[C@@H](O)[C@]1(C)O,-16&-12,-17&-18
CC(=O)Nc1ccc(-n2nc(OC(C)C)nc2-c2cccc(C(F)(F)F)c2)cc1,19,19
CC1CCCC(NC(=O)Nc2ccccc2-n2cccn2)C1 (stereo not drawn),6,5
N#Cc1cc(F)ccc1N1CCCN(C2CCOCC2)CC1,6,3
CN(Cc1ccncn1)C(=O)CC(c1cccc(O)c1)c1cccc(Cl)c1 (stereo not drawn),3,1
CN(CC(=O)N1c2ccccc2NC(=O)C1(C)C)C1CCCc2ccccc21 (stereo not drawn),1,1
COc1ccc(CN(C)[C@@H]2c3ccccc3C3(CCNCC3)[C@H]2O)cc1O,29,16
Cc1cc2c(c(=S)[nH]1)C(=O)O/C2=C/c1ccc(Cl)cc1Cl,8,2
CCc1noc(CN2CCC(C(C)NC(=O)OC(C)(C)C)CC2)n1 (stereo not drawn),7,3
CCN(CCN1CCCC1)C(=O)c1cccc(-c2ccc(O)cc2)c1,2,0
O=C(O)CSc1nnc(CN2CCCCC2)n1-c1cccc(Cl)c1,30,23
O=C(CCC1CCCC1)Oc1ccc(-c2nc3ccccn3c2NC2CCCCC2)cc1,-13,-3
COCC1CN(Cc2cc(F)cc(Br)c2)CCO1 (stereo not drawn),1,0
O=C1c2ccccc2C(=O)c2c1cc1ccccc1c2OCc1ccccc1,-5,-11
CNC(=O)N(C1=NCC(C)S1)C1CCCCC1 (stereo not drawn),-5,-10
Cc1cc(C)cc(-c2nc3cc(C)ccn3c2NC(=O)CC(C)CC(C)(C)C)c1 (stereo not drawn),-6,0
CN1C(=O)NC(c2ccccc2C(F)(F)F)C2=C1CN(CC(=O)NCCOc1ccccc1)C2=O (stereo not drawn),0,6
Cc1ccc(SCC(=O)Nc2nc(C)c(Cl)cc2Cl)c(C)c1,2,2
COc1ccc(NC(=O)Cn2nc(SC)c(S(=O)(=O)c3ccc(OC)cc3)c2N)cc1,-9,-9
COc1ccc(Oc2ccc(CNCc3ccc(C)s3)cn2)cc1,7,4
O=C1CN(S(=O)(=O)c2c(F)cc(F)cc2F)CC2c3cccc(F)c3CCN12 (stereo not drawn),3,2
Cc1nc(C(=O)N(C)C(C)c2ccccn2)nn1-c1ccccc1Cl (stereo not drawn),11,2
O=C(COc1ccc(Cl)cc1)NC1CCN(c2ccccc2C(=O)N2CCN(C3CCCCCC3)CC2)CC1,16,26
COc1ccccc1NC(=O)N1CCC2(CC1)SCCN2C(=O)c1ccc([N+](=O)[O-])cc1,-6,-4
O=C(C(Br)=CNc1ncccn1)C(F)(F)F,6,5
Cc1ccsc1CN(C)Cc1ccc2cccc(O)c2n1,0,-10
COCCCNC(=O)c1cc(-c2ccccc2F)n2nc(C(C)(C)C)cc2n1,15,14
Cc1cccc(C(=O)N(Cc2ccccc2)Cc2cc(NC(=O)CC(C)C)ccc2N(C)C)c1,1,8
CC(OC(=O)C1CC=CCC1C(=O)NCc1ccccc1)C(Cl)=C(Cl)Cl (stereo not drawn),-8,-12
CCOC(=O)c1cn[nH]c1S(=O)(=O)NCc1ccco1,2,-3
Nc1nc(N)nc(CN2CCN(S(=O)(=O)N3CCCCCC3)CC2)n1,0,-2

# Random excerpt: two compounds from above
SMILES,NPYLR7 ag,NPYLR7 ag max-min
COc1ccccc1NC(=O)N1CCC2(CC1)SCCN2C(=O)c1ccc([N+](=O)[O-])cc1,-6,-4
CCOC(=O)c1cn[nH]c1S(=O)(=O)NCc1ccco1,2,-3

# Later entries
SMILES,NPYLR7 ag,NPYLR7 ag max-min
Cc1c(C(=O)NCc2ccccn2)cnn1-c1ccc([N+](=O)[O-])cc1,-3,3
Cc1nnc(SC(C)C(=O)NC2CCCCC2C)s1 (stereo not drawn),9,6
Cc1ccc(S(=O)(=O)Nc2ccc(Nc3ccc(-n4nc(C)c(C)c4C)nn3)cc2)cc1,-4,-9
COCCNC(=O)CSc1nc(=O)n2cc(C)ccc2n1,-1,-3
CCN(Cc1nc2cc(Cl)ccc2c(=O)[nH]1)C(=O)COc1c(C)cc(Br)cc1Cl,-7,-10
Cc1cccn2c(=O)c(C(=O)NC3CCCCC3)c(O)nc12,-2,5
COc1ccc(CCN2C(=O)O[C@@H]3CN(CC(=O)O)C[C@@H]32)cc1,3,2
CC(C)=CCc1c2c(c3occ(-c4ccc(O)c(O)c4)c(=O)c3c1O)C=CC(C)(C)O2,-3,-15
CCn1cc(S(=O)(=O)NCc2cnn3ccccc23)c(C)n1,6,3
O=S(=O)(Nc1ccccc1)c1ccc(S(=O)(=O)N2CCCC2)cc1,8,10
CS(=O)(=O)c1ccc(NCCN)c([N+](=O)[O-])c1,-3,-3
Cc1[nH]n(-c2ccccc2)c(=O)c1C=NCc1ccco1,9,10
O=C(c1ccco1)N1CCN(C(=O)c2ccc(Br)o2)CC1,20,11

# In the list so far, these contain a CF3 group.
SMILES,NPYLR7 ag,NPYLR7 ag max-min
O=[N+]([O-])c1cc(S(=O)(=O)C(F)(F)F)ccc1NCCc1nnc2ccccn12,8,9
COc1ccc(CCOC(=O)C2CCCCN2C(=O)c2ccccc2-c2ccc(C(F)(F)F)cc2)cc1OC (stereo not drawn),-7,-11
CCn1c(C2CCCN(C(=O)c3cc(C(F)(F)F)[nH]n3)C2)nn(C)c1=O (stereo not drawn),-4,-5
FC(F)(F)CCc1ccnc(NCC2OCCc3ccccc32)n1 (stereo not drawn),0,-1
Cc1ccc(-n2nnnc2C2(NC(=O)C(F)(F)F)CCCC2)cc1,19,11
COc1ccc(CC(=O)NCc2nnc(SCC(=O)N3CCc4ccccc43)n2-c2cccc(C(F)(F)F)c2)cc1,2,3
COc1ccc(C(=O)N2N=C(C3CCCCC3)CC2(O)C(F)(F)F)cc1OC (stereo not drawn),2,1
COCCCN=C(NC(=O)c1cccc(C(F)(F)F)c1)OCC(C)C,26,32
CCOC(=O)c1ccc2c(c1)nc(SCc1ccc(OC)c(C(F)(F)F)c1)n2Cc1ccccn1,11,12
COc1ccc(-c2cc(C(F)(F)F)n3nc(C(=O)Nc4ccc([N+](=O)[O-])cc4Cl)cc3n2)cc1,-22,-26
O=C(CN(C(=O)c1ccc(C(F)(F)F)cc1)C1CC1)N1CC(=O)N(c2ccc(Cl)cc2)C1,3,14
CC(=O)Nc1ccc(-n2nc(OC(C)C)nc2-c2cccc(C(F)(F)F)c2)cc1,19,19
CN1C(=O)NC(c2ccccc2C(F)(F)F)C2=C1CN(CC(=O)NCCOc1ccccc1)C2=O (stereo not drawn),0,6
O=C(C(Br)=CNc1ncccn1)C(F)(F)F,6,5
